High-throughput results (PubChem BioAssay)
UUG fidelity: modulators of yeast start codon fidelity, primary screen, whole organism, S. cerevisiae, single point, plate reader | 350,000 tested, 0.13% active | activity score, % at 18.7 µM | S. cerevisiae UUG-firefly luciferase reporter, luminescence/redox ratio;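 active = replicate mean at a twofold rise or more, about +100% in these data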;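 note: firefly luciferase made from a UUG start codon reports start codon fidelity; reporter light over untreated wells divided by growth signal over untreated wells; some hits fall short of that in this replicate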
HIV Env fusion: inhibitors of HIV-1 Env-driven cell-cell fusion, primary screen, HeLa-JRFL effector, CEM21 target cells, luciferase | inhibition, % at 12.3 µM | 360,000 tested, 1.1% active | AID 651610, 2012;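 active = mean replicate inhibition score of at least 50 and every replicate individually at or above 50; inconclusive = only one of the two criteria met; inactive = mean below 50 and not all replicates reaching 50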;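 note: 0% = plate neutral controls and 100% = maraviroc near 300 nM; one replicate is shown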
PABP FP inh: PABP poly(A) RNA binding inhibitors, primary screen, biochemical, fluorescence polarization, uHTS; Polyadenylate-binding protein 1 (Homo sapiens), P11940; inhibition, % at 35 µM; 290,000 tested, 1% active; AID 2014, 2009;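 active = 50% or more with normal probe brightness, or confirmed in later tests; inconclusive = above 50% with abnormal brightness, or retests that disagree; inactive = below 50% or failed in later tests; about a fifth of its hits are not listed in these tables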;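 note: calls also rest on retests at 20 µM and on dose response follow-up; controls were probe without protein and protein plus probe with vehicle; some compounds called inactive have numbers as strong as hits; many hits fall short of the cut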
CSC inhib: cancer stem cell viability inhibitors, primary screen, luminescence; 300,000 tested, 1.1% active; inhibition, % at 7.5 µM; cancer stem cell-like cells viability;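 active = mean at 75% or more and at least half the replicates too; inconclusive = mean and replicates disagree; tested in HMLE shEcad cells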;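 note: 0% = median of negative and 100% = median of positive control wells; the first replicate is given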
MT1-MMP act inh: blockers of MT1-MMP proenzyme processing, primary screen, HT1080 RFP-PRO-GFP cells, GFP/RFP fluorescence; GFP/RFP ratio change, % at 20 µM; 360,000 tested, 0.061% active; GFP/RFP ratio fluorescence, overnight; percent of plate control window, DMSO zero;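 active = GFP/RFP ratio change of at least 30% with cell ATP level not reduced by more than half and red fluorescence within 50% of control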; note: strong numbers were not always called active
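Assay system: RFP-PRO-GFP reporter HT1080 cells; read-out basis: GFP/RFP fluorescence ratio; benchmarks: DMSO wells and RFP-L50D-GFP cells; doses: 20 µM single dose, 1% DMSO; schedule: overnight cell settling, then overnight compound exposure, 37 °C, 5% CO2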
Rce1 inh: yeast Rce1p protease inhibitors, primary screen, biochemical, fluorescence, cell-free homogeneous; yeast membranes, quenched prenylated peptide cleavage fluorescence; CAAX prenyl protease 2 (Saccharomyces cerevisiae (strain ATCC 204508 / S288c)), Q03530; AID 2563, 2010; 290,000 tested, 0.27% active; calls only;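 active = fall in fluorescence gain of 50% or more versus controls, with final raw signal at or below 3038400; inconclusive = same 50% fall but final raw signal above 3038400; inactive = fall in fluorescence gain under 50%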;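 note: plate controls were neutral control wells for no effect and wells lacking membranes for full effect; tested at 10 µM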
Target sequence (Q03530 whole entry, looked up): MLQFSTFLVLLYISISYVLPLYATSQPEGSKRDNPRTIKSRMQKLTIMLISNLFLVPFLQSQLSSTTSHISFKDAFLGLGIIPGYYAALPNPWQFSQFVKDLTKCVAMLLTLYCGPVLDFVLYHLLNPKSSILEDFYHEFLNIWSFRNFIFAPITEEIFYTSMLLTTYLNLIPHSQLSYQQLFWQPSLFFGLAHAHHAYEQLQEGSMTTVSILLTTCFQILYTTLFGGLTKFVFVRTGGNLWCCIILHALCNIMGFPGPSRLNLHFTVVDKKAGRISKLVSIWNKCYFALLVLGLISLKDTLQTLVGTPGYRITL
eIF4H inh: human eIF4H binding inhibitors, primary screen, translation initiation inhibitor project, biochemical, uHTS, fluorescence polarization. eIF4H fluorescence polarization binding assay. inhibition, % at 35 µM. 290,000 tested, 0.94% active. AID 2012, 2009;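 active = 50% or more with normal probe brightness, or confirmed in later tests; inconclusive = above 50% with abnormal brightness, or retests that disagree; inactive = below 50% or failed in later tests; about a fifth of its hits are not listed in these tables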;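 note: calls also rest on retests at 20 µM and on dose response follow-up; 0% = protein and probe with vehicle and 100% = probe without protein; strong numbers were not always called active; many hits fall short of the cut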
eIF4H inh retest: second read-out of eIF4H inh, no call of its own (marks repeat the call); inhibition, %; compound at 20 µM; confirmation average;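 mean of two retest wells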
PABP FP inh retest: further read-out of PABP FP inh, marked with its call; inhibition, %; compound at 20 µM; confirmation repeats;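 mean of two retest wells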
MT1-MMP act inh RFP: recorded beside MT1-MMP act inh, whose call it bears; RFP signal change, %; measured here: RFP expression control read;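 0 = vehicle wells; hits needed this value within 50% of zero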
The depositor's hits bear a star; i = inactive; ? = inconclusive; . = not tested or not shown; [ ] = remark or other dose.

SMILES | UUG fidelity | HIV Env fusion | PABP FP inh | CSC inhib | MT1-MMP act inh | MT1-MMP act inh RFP | Rce1 inh | eIF4H inh | others
O=C(COC(=O)/C=C/c1nc2ccccc2s1)Nc1cccc2ccccc12 | . | 2 | 4 | 5 | 2 | 1 | i | -8
Cc1cccc(-n2c(SCC(=O)O)nc3sc4c(c3c2=O)CCCC4)c1 | -21 | 25 | 5 | 1 | 7 | 2 | i | 94 | eIF4H inh retest=-1;PABP FP inh retest=-3
CCOc1ccccc1C(=O)NC(C(=O)OCn1nnc2ccccc2c1=O)C(C)C (stereo not given) | -18 | 8 | . | . | 5 | -6 | . | .
COc1ccc(C)cc1S(=O)(=O)NC1CCCCC1 | -26 | 6 | 6 | 2 | -5 | -1 | i | 9
COCCNC(=O)c1cc2nc(-c3ccc(F)cc3)cc(C(F)(F)F)n2n1 | . | 8 | 4 | -5 | 0 | 1 | i | 5
COc1ccc(S(=O)(=O)N2CCCC2)c(Cl)c1Cl | . | 0 | 4 | 5 | 4 | 3 | . | -10
COc1ccc(-c2sc3cc4c(cc3c2-c2ccc(OCCN3CCOCC3)cc2)OCO4)cc1 | 2 | 18 | . | 125* | . | . | . | .
N#Cc1ccc(CSc2nnc(-c3cccs3)n2-c2ccccc2)cc1 | -10 | -17 | -9 | 3 | -2 | -14 | i | -4
CC(=O)Nc1nc(C)c(Oc2ccc(Cl)cc2)c(=O)[nH]1 | -12 | 6 | -3 | -29 | 0 | 3 | i | -7
COC(=O)c1ccc(CNC(=O)Cn2cnc3c(NCc4ccccc4)ncnc32)cc1 | -15 | -3 | . | . | -1 | -4 | . | .
CC(C)NC(=O)CN1C(=O)C(C)(C)Oc2ccc(C(=O)NC3CCCCC3)cc21 | -7 | -7 | -2 | -5 | 2 | 1 | . | 3
CCN(c1cccc(C)c1)S(=O)(=O)c1cn(CC(=O)OC)c2ccc([N+](=O)[O-])cc12 | 11 | 2 | 2 | -6 | -3 | 1 | i | 10
COc1cc(/C=C/C(=O)Nc2nnc(CC(C)C)s2)cc(OC)c1OC | . | 57* | 8 | -35 | -14 | -12 | i | -1
CCOC(=O)CSc1nc2ccccc2c(=O)n1CC1CCC(C(=O)NCc2ccco2)CC1 (stereo not given) | 21 | 23 | -2 | 1 | 8 | 2 | i | -3
Cc1cc(C)c(NC(=O)C2CCN(c3cnccn3)CC2)c(C)c1 | -5 | 22 | 2 | -10 | -2 | -1 | i | -5
CCOC(=O)c1sc(-c2ccc(Cl)cc2)nc1O | -17 | 5 | -12 | -2 | -2 | 0 | i | -4
Cc1cccc(N2CC(C)Cn3c2nc2c3c(=O)[nH]c(=O)n2C)c1 (stereo not given) | . | 10 | 7 | 15 | 11 | 7 | i | -6
CCOC(=O)c1cc[n+](CC(=O)c2ccc(F)cc2)cc1 | -15 | -8 | 10 | -34 | 6 | 17 | i | 6
Cc1cc(OCc2ccc(C(=O)NN=C3CCCC3)cc2)ccc1Cl | . | 0 | -3 | 11 | 4 | 4 | i | -7
CC(C)(C)c1cc(NC(=O)c2c(F)cccc2Cl)n(-c2ccccc2)n1 | -11 | 40 | -7 | 1 | 0 | 0 | i | 10
COc1ccc(N/C(=N\c2nc(C)cc(C)n2)NC(C)=O)cc1OC | -1 | -41 | -13 | -5 | 1 | 3 | i | -3
Cc1ccc(Cl)cc1NC(=O)C1CCN(S(C)(=O)=O)CC1 | . | 6 | -9 | 15 | -4 | 2 | i | -10
COc1cccc(S(=O)(=O)N(C)C[C@@H]2Oc3cc(Br)ccc3S(=O)(=O)N([C@@H](C)CO)C[C@@H]2C)c1 | -1 | 44[16.7 µM] | . | . | -4 | -5 | . | .
Cc1cc2oc(C(=O)NCCc3ccc(S(N)(=O)=O)cc3)c(C)c2cc1C | . | 8 | 3 | 14 | -1 | 3 | i | -2
COC(=O)c1ccc(SCC(=O)N2CCC(C)CC2)c([N+](=O)[O-])c1 | . | 9 | -14 | 1 | 1 | 1 | i | -3
Cc1ccc(-n2c(N)c(C(=O)N3CCOCC3)sc2=S)cc1 | -7 | 6 | 16 | -6 | 2 | -2 | i | 2
CC(C)C(NC(=O)c1ccccc1)C(=O)N/N=C\c1ccco1 (stereo not given) | . | 8 | -5 | -10 | 3 | 7 | i | 2
COc1cccc2[nH]c(C(=O)NCC3CCCO3)cc12 (stereo not given) | -14 | -6 | -3 | -3 | 3 | 6 | i | 0
CC(=O)Nc1c(Cl)cc2c(c1Cl)Cc1ccccc1-2 | -22 | -15 | . | . | 0 | 6 | . | .
O=C(CSc1n[nH]c(-c2ccccc2O)n1)N1CCOCC1 | . | -12 | -1 | -23 | -2 | 1 | i | -19
CCN1C(=O)[C@H]2[C@@H](c3ccc(C)cc3)N[C@]3(CCCN(Cc4ccc(C)cc4)C3=O)[C@H]2C1=O | -1 | -34 | . | . | 4 | 4 | . | .
O=C(/C=C/c1ccccc1)OCCCCN=C1NS(=O)(=O)c2ccccc21 | . | 7 | 0 | 11 | 3 | -6 | i | 2
CNS(=O)(=O)c1cccc(C(=O)OCC(=O)C23CC4CC(CC(C4)C2)C3)c1 | -44 | . | 2 | 20 | 1 | 0 | i | -2
Cc1cc(Br)c(NC(=O)COC(=O)C2CCCCC2)c(Br)c1 | -9 | . | . | -35 | 4 | 3 | . | .
COc1cccc(N2CC(C(=O)Nc3nnc(SCC(=O)NC4CCCC4)s3)CC2=O)c1 (stereo not given) | -8 | 1 | 8 | 6 | -1 | -3 | i | -2
CCOC(=O)c1c(CSc2ccccc2)n(C)c2cc(Br)c(O)c(CN(C)C)c12 | . | 67* | -14 | 9 | 2 | -5 | i | -8
O=[N+]([O-])c1ccccc1NCCNS(=O)(=O)c1ccc(Cl)cc1 | . | . | 16 | 9 | -3 | 1 | i | 1
Oc1cc(O)cc(-c2cc3ccc(O)cc3o2)c1 | -46 | . | . | -11 | -2 | 0 | ? | .
CN(C)C(=O)C1Cc2ccccc2CN1S(=O)(=O)c1ccc(F)cc1 (stereo not given) | -18 | 17 | 2 | 9 | 0 | 6 | i | -13
CCOc1cc(C2C(C(=O)c3ccccc3)=C(C(=O)OC)Nc3nnnn32)ccc1O (stereo not given) | -9 | . | -10 | -9 | -3 | 1 | i | 1
COc1ccc(CCNC(=O)COC(=O)C2CC2)cc1OC | -13 | 2 | . | -16 | -5 | -2 | . | .
CC1=C(C(=O)OCCBr)C(c2cccc3ccccc23)NC(=O)N1 (stereo not given) | . | 2 | -2 | -8 | 5 | 0 | i | -6
COc1cc(C=C2C(=O)OC(C)(C)OC2=O)cc(Cl)c1OCC(=O)Nc1ccccc1 | . | -14 | 9 | -3 | 2 | 0 | i | 16
O=S1(=O)c2ccccc2C(CCO)N1Cc1ccccc1 (stereo not given) | -19 | -10 | 2 | -2 | 3 | -1 | i | -2
Cc1nn(Cc2ccccc2)c(C)c1C(=O)NCCCN1CCCC1=O | 3 | . | . | 7 | 6 | 3 | . | .
CN(C)c1ccc(/C=N/N2C(=S)SC(C)(C)C2N(O)C(=O)Nc2ccc([N+](=O)[O-])cc2)cc1 (stereo not given) | -23 | . | -1 | -1 | 0 | -11 | i | -4
Nc1nnc(SCC(=O)Nc2cc(C(F)(F)F)ccc2N2CCOCC2)s1 | -21 | -7 | 4 | . | 5 | -1 | i | 8
Nn1c(SCc2ccccc2F)nnc1-c1cccnc1 | -19 | -9 | -6 | -4 | -1 | -2 | i | -6

Ordered by formula weight (smallest number first): some entries from above.
SMILES | UUG fidelity | HIV Env fusion | PABP FP inh | CSC inhib | MT1-MMP act inh | MT1-MMP act inh RFP | Rce1 inh | eIF4H inh | others
Nn1c(SCc2ccccc2F)nnc1-c1cccnc1 | -19 | -9 | -6 | -4 | -1 | -2 | i | -6
Nc1nnc(SCC(=O)Nc2cc(C(F)(F)F)ccc2N2CCOCC2)s1 | -21 | -7 | 4 | . | 5 | -1 | i | 8
CCOc1cc(C2C(C(=O)c3ccccc3)=C(C(=O)OC)Nc3nnnn32)ccc1O (stereo not given) | -9 | . | -10 | -9 | -3 | 1 | i | 1

Carrying on.
SMILES | UUG fidelity | HIV Env fusion | PABP FP inh | CSC inhib | MT1-MMP act inh | MT1-MMP act inh RFP | Rce1 inh | eIF4H inh | others
COc1cccc(/C=C2\CCC(C3CCCC3)C2=O)c1 (stereo not given) | -54 | -9 | -4 | 0 | 2 | -2 | i | -4
COc1ccc(CCN2C(=O)CSC2c2ccc(OC)c(OC)c2)cc1OC (stereo not given) | 1 | -6 | 9 | -6 | 3 | -10 | i | -12
Nc1nc(SCC(=O)OCc2ccccc2)[nH]c(=O)c1NC(=O)c1ccco1 | -19 | . | 9 | 8 | 0 | 7 | i | -1
CC(=O)c1ccc(N(C(=O)CS(=O)CC(=O)Nc2ccc(F)cc2)C(C(=O)NC2CCCCC2)c2cccs2)cc1 (stereo not given) | . | -2 | 6 | -4 | 0 | -3 | i | -6
CCn1c(SCC(=O)Nc2ccc3c(c2)OCCO3)nnc1-c1c[nH]c2ccccc12 | -2 | -3 | -8 | -4 | -9 | -4 | i | -8
CC1CCCC(NC(=O)CNC(=O)c2cccs2)C1C (stereo not given) | -14 | -5 | . | -3 | 0 | 5 | i | .
N#Cc1nc(-c2ccco2)oc1N1CCc2ccccc2C1 | -5 | . | -1 | 4 | -3 | -3 | i | 10
COc1cc(Br)cc(C(c2c(C)n(C)n(-c3ccccc3)c2=O)c2c(C)n(C)n(-c3ccccc3)c2=O)c1O | 13 | 2 | . | 4 | 0 | 1 | i | .
CCN(CC)c1cc(CS(=O)c2ccccc2)nc(-c2ccccc2)n1 (stereo not given) | -6 | . | . | -17 | -3 | -5 | . | .
COc1ccc(CC(=O)OCN2C(=O)c3ccccc3C2=O)cc1 | -20 | . | 3 | 2 | 1 | 4 | i | -2
COc1cc(C(=O)OCC(=O)NC(N)=O)cc(CN2C(=O)c3ccccc3C2=O)c1OC | -4 | 0 | 4 | 1 | -8 | -6 | i | -11
O=C(CCSc1nc(-c2ccco2)cc(C(F)(F)F)n1)NCc1cccs1 | -17 | . | -3 | -4 | -5 | 0 | i | 0
CC(C)c1cc(C(=O)O)on1 | -9 | -17 | 9 | -4 | 3 | 2 | i | -8
O=c1oc(-c2ccco2)nc2sc3c(c12)CCCC3 | -2 | . | -14 | 8 | 0 | 1 | i | 3
O=C(CSc1ccc([N+](=O)[O-])cn1)Nc1ccc2[nH]c(=O)[nH]c2c1 | -7 | -8 | -3 | 0 | 2 | -1 | i | -7
CC1=C(C#N)CCC(=O)N1Cc1ccc(C)cc1 | -12 | . | -2 | -8 | 1 | 1 | i | -12
CCOc1ccc(NS(=O)(=O)c2ccc3c(c2)oc(=O)n3C)cc1 | -11 | -2 | -1 | -2 | 6 | 4 | i | 2
O=C(Cc1ccc(F)cc1)NCCc1ccc(F)cc1 | . | . | 0 | -2 | 4 | 3 | i | 6
O=C(Cn1ccc2ccccc21)Nc1ccc2c(c1)OCO2 | . | -9 | -4 | -5 | 1 | 3 | i | 1
Nc1ccc(C(=O)N/N=C/c2cn(Cc3ccccc3F)c3ccccc23)cc1 | -6 | 20 | 5 | 5 | 0 | -13 | i | -1
